GALR2 ag: agonists of human galanin receptor 2 (GALR2); GALR2-expressing cells, agonist activation read-out; activation, %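 (tested at 5 µM)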; 140,000 tested, 0.48% active; AID 803;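 active = above mean plus 3 SD of all compounds, about 5% in these data, not always enough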;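 note: 0% = vehicle buffer wells and 100% = reference agonist at full effect; tested in CHO reporter cells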
RGS16-Gao: modulates binding between human RGS16 and Galphao. O15492+P09471. bead-based flow cytometry RGS16-Galphao binding, fluorescence; actives lie on both sides. binding response (% of control), % at 10 µM. 220,000 tested, 0.38% active;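 active = below 25% or above 175%, edge rows of some plates excepted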;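 note: Galphao activated by GDP with aluminum fluoride before binding; 100% = wells without compound and 0% = beads without RGS; some results beyond the cut were filed as inactive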
HSV replic up: HSV replication enhancement; maximum fold increase; 220,000 tested, 0.005% active; HSV replication augmentation in cells, fold increase; AID 1956;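 active = peak rise of 1.5-fold or more in the series; inconclusive = self-fluorescent or not available for retest; tested in PC3 cells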;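 note: first round at 10 µM; read as green reporter fluorescence; hits show the peak of a series up to 25 µM; 1 = signal of infected wells without compound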
PKD1 kinase inh: inhibitors of human PKD1 kinase; PKD1 kinase fluorescence polarization assay; inhibition, %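 (about 10 µM by stock and volumes)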; AID 797; Q15139; 200,000 tested, 0.056% active;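 active = inhibition of 50% or more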;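 note: controls were vehicle for no effect and a reference inhibitor for full effect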
Target sequence (Q15139 whole entry, looked up): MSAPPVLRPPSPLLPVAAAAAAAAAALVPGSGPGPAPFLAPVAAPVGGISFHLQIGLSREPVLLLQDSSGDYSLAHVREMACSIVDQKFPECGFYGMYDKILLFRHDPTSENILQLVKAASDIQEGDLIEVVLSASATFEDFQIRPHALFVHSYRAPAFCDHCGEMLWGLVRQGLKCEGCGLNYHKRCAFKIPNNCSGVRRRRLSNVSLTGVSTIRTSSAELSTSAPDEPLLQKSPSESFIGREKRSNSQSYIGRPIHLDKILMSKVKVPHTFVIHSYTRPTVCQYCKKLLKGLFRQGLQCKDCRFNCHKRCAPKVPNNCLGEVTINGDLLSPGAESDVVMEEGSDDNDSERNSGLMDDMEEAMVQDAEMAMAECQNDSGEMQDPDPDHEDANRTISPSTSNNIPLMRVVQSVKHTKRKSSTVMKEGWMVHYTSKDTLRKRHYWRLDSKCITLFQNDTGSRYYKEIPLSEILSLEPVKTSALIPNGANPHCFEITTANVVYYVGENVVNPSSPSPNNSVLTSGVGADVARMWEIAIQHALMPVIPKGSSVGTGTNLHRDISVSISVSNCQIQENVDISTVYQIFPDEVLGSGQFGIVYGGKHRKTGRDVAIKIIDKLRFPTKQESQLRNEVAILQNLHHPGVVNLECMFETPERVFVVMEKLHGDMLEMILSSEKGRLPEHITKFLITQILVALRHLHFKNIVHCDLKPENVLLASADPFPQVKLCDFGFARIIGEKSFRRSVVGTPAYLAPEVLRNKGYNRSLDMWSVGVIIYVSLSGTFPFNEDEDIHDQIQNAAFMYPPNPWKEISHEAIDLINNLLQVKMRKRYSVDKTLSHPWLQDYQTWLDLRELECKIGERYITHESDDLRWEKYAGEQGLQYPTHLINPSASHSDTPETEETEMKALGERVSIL
INS promoter inh: TRM-6 insulin promoter activity inhibition. 130,000 tested, 0.9% active. AID 1273. inhibition, % at 2 µM. TRM-6 cells (human fetal islet line), insulin promoter-eGFP reporter, imaging; reporter expression induced with tamoxifen;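 active = inhibition above the mean plus 3 SD, with well images judged a real hit on visual review, cut at about 60% in these data, passing the limit was not always enough; inconclusive = inhibition over the cutoff but images rejected on review; inactive = inhibition not above the cutoff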
INS promoter inh cell count: further read-out of INS promoter inh, marked with its call; normalized cell count, %; measured here: cell count, toxicity; reference of the scale not given here;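 cells exposed to compound for 48 h; stained nuclei by imaging scaled within each plate; lower means fewer cells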
HSV replic up primary fold: also measured in HSV replic up; calls as there; fold increase; compound at 10 µM; measured here: primary screen fold increase 10 uM; tested in PC3 cells;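 GFP signal in the first replicate; 1 = infected wells without compound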
An asterisk follows results filed as active. Random draw from the library, and some 1.3% of all compounds hit somewhere here.

How did CCOC(=O)c1cc2c(=O)[nH]ccc2nc1C(F)(F)F do in these assays?
RGS16-Gao: 105; HSV replic up: inactive; HSV replic up primary fold: 0.86

Results for CCC(C)NC(=S)Nc1ccc2nc(N3CCN(CC)CC3)cc(C)c2c1 (centres undefined) ?
RGS16-Gao: 101; HSV replic up: inactive; PKD1 kinase inh: -5; HSV replic up primary fold: 0.81

How did O=C(O)c1ccc2c(c1)-c1nc3ccccc3n1C2=O do in these assays?
GALR2 ag: -2.8; RGS16-Gao: 94; HSV replic up: inactive; PKD1 kinase inh: -6; INS promoter inh: -20; INS promoter inh cell count: 106; HSV replic up primary fold: 0.96

What do the screens show for `COc1cccc(NC(=O)CSc2nncn2-c2ccccn2)c1`?
GALR2 ag: 0.0; RGS16-Gao: 100; HSV replic up: inactive; PKD1 kinase inh: 0; HSV replic up primary fold: 1.1

How did CCOC(=O)c1c(NC(=O)CCC(=O)O)sc2c1CC(C)(C)OC2 do in these assays?
RGS16-Gao: 100; HSV replic up: inactive; PKD1 kinase inh: -1; HSV replic up primary fold: 1.5

What do the screens show for `O=C1CCNc2c(Cl)cccc21`?
RGS16-Gao: 100; HSV replic up: inactive; HSV replic up primary fold: 1.1

Results for O=C(Nc1ccccn1)C12CC3CC(C1)CC(C(=O)Nc1ccccn1)(C3)C2 ?
GALR2 ag: -0.9; RGS16-Gao: 99; HSV replic up: inactive; PKD1 kinase inh: -7; INS promoter inh: -75; INS promoter inh cell count: 110; HSV replic up primary fold: 1.1

Results for O=C1NC[C@@H](Cc2ccc(O)cc2)N(CCc2cccc3ccccc23)C1=O ?
RGS16-Gao: 95; HSV replic up: inactive; HSV replic up primary fold: 0.71

What do the screens show for `COc1ccc(/C=C/C(=O)OCC(=O)NCCC2=CCCCC2)cc1`?
RGS16-Gao: 115; HSV replic up: inactive; PKD1 kinase inh: -1; HSV replic up primary fold: 0.98

Results for O=C(O)CCCn1cc(NC(=O)COc2ccc([N+](=O)[O-])cc2)cn1 ?
RGS16-Gao: 99; HSV replic up: inactive; PKD1 kinase inh: -6; HSV replic up primary fold: 0.97

Compounds shown so far that contain a COOH group (3):
How did O=C(O)c1ccc2c(c1)-c1nc3ccccc3n1C2=O do in these assays?
GALR2 ag: -2.8; RGS16-Gao: 94; HSV replic up: inactive; PKD1 kinase inh: -6; INS promoter inh: -20; INS promoter inh cell count: 106; HSV replic up primary fold: 0.96

How did CCOC(=O)c1c(NC(=O)CCC(=O)O)sc2c1CC(C)(C)OC2 do in these assays?
RGS16-Gao: 100; HSV replic up: inactive; PKD1 kinase inh: -1; HSV replic up primary fold: 1.5

Results for O=C(O)CCCn1cc(NC(=O)COc2ccc([N+](=O)[O-])cc2)cn1 ?
RGS16-Gao: 99; HSV replic up: inactive; PKD1 kinase inh: -6; HSV replic up primary fold: 0.97

New compounds follow:
What do the screens show for `COc1cc2c(cc1NC(=O)/C=C/c1cc(OC)c(OC)c(OC)c1)oc1ccccc12`?
GALR2 ag: -0.6; RGS16-Gao: 103; HSV replic up: inactive; PKD1 kinase inh: -5; HSV replic up primary fold: 0.84

How did Cc1cccnc1NC(=O)CCCN1C(=O)c2ccccc2C1=O do in these assays?
GALR2 ag: -1.8; RGS16-Gao: 98; HSV replic up: inactive; PKD1 kinase inh: -3; INS promoter inh: -8; INS promoter inh cell count: 93; HSV replic up primary fold: 1

How did COc1ccc(C2/C=C\CN(C(=O)C3CC3)CC(=O)N2Cc2ccc(F)cc2)cc1 (centres undefined) do in these assays?
RGS16-Gao: 94; HSV replic up: inactive; HSV replic up primary fold: 0.85

Results for CC(=O)Nc1ccc(S(=O)(=O)Oc2ccc3c(c2)C(C)=CC(C)(C)N3)cc1 ?
GALR2 ag: -1.3; RGS16-Gao: 109; HSV replic up: inactive; PKD1 kinase inh: -10; INS promoter inh: 14; INS promoter inh cell count: 130; HSV replic up primary fold: 0.82

How did CC(=O)Nc1ccc(NC(=O)C2CCCN2S(=O)(=O)c2cccc3nsnc23)cc1 (centres undefined) do in these assays?
RGS16-Gao: 102; HSV replic up: inactive; PKD1 kinase inh: 0; INS promoter inh: 36; INS promoter inh cell count: 100; HSV replic up primary fold: 1

What do the screens show for `N/C(=N\O)c1ccc(NC(=O)c2ccc(Br)o2)cc1`?
GALR2 ag: -2.6; RGS16-Gao: 99; HSV replic up: inactive; PKD1 kinase inh: 3; INS promoter inh: -233; INS promoter inh cell count: 42; HSV replic up primary fold: 0.9

How did CCOP(=O)(OCC)C(Nc1ccccc1)c1ccccc1C(F)(F)F (centres undefined) do in these assays?
RGS16-Gao: 101; HSV replic up: inactive; HSV replic up primary fold: 0.94

What do the screens show for `COCCNC(=O)C1CCCN(S(=O)(=O)c2c(C)noc2/C=C/c2cccs2)C1` (centres undefined)?
RGS16-Gao: 113; HSV replic up: inactive; HSV replic up primary fold: 0.96

What do the screens show for `O=C(CN1CCC(C(O)(c2ccccc2)c2ccccc2)CC1)Nc1cc(Cl)ccc1Cl`?
GALR2 ag: -0.1; RGS16-Gao: 105; HSV replic up: inactive; PKD1 kinase inh: 21; HSV replic up primary fold: 0.88

How did O=C(N/N=C/c1ccc([N+](=O)[O-])cc1)c1ccc(COc2ccccc2-c2ccccc2)cc1 do in these assays?
RGS16-Gao: 103; HSV replic up: inactive; PKD1 kinase inh: 6; HSV replic up primary fold: 0.99

How did O=C(Cc1ccc(S(=O)(=O)N2CCCCC2)s1)Nc1ccc(F)c(F)c1 do in these assays?
GALR2 ag: -0.7; RGS16-Gao: 89; PKD1 kinase inh: -4; INS promoter inh: 8; INS promoter inh cell count: 92

Results for CCN(CC)C(=O)c1sc2nc(Cc3ccccc3)[nH]c(=O)c2c1C ?
RGS16-Gao: 99; HSV replic up: inactive; PKD1 kinase inh: -15; INS promoter inh: 11; INS promoter inh cell count: 91; HSV replic up primary fold: 0.89

How did Cc1sc2nc(CN3CCCC3)nc(N3CCN(S(=O)(=O)c4cccs4)CC3)c2c1C do in these assays?
GALR2 ag: 0.0; RGS16-Gao: 93; HSV replic up: inactive; PKD1 kinase inh: 0; INS promoter inh: -57; INS promoter inh cell count: 47; HSV replic up primary fold: 0.77

How did Cn1c(C(=O)NCCc2ccccc2)cc(=O)n(C)c1=O do in these assays?
RGS16-Gao: 101; HSV replic up: inactive; PKD1 kinase inh: -3; HSV replic up primary fold: 0.93

How did COC(=O)C1CCN(C(=O)c2cc(OC)c(OC)c(OC)c2)CC1 do in these assays?
GALR2 ag: -0.2; RGS16-Gao: 100; HSV replic up: inactive; PKD1 kinase inh: 11; HSV replic up primary fold: 0.85

Results for COCc1ccc(CN2CCc3c([nH]c4ccccc34)C2C(C)(C)C)o1 (centres undefined) ?
RGS16-Gao: 94; HSV replic up: inactive; PKD1 kinase inh: -7; INS promoter inh: -231; INS promoter inh cell count: 64; HSV replic up primary fold: 1.1

Results for Cc1cc(C)cc(NC(=O)c2ccccc2CC[N+](=O)[O-])c1 ?
GALR2 ag: -2.2; RGS16-Gao: 105; HSV replic up: inactive; PKD1 kinase inh: -11; INS promoter inh: -39; INS promoter inh cell count: 62; HSV replic up primary fold: 1

Results for O=c1[nH]c(CSc2ncnc3sccc23)nc2cc(C(F)(F)F)ccc12 ?
RGS16-Gao: 101; HSV replic up: inactive; HSV replic up primary fold: 1.1

How did O=C(CSCc1ccccc1F)NCc1ccccc1 do in these assays?
RGS16-Gao: 114; HSV replic up: inactive; PKD1 kinase inh: -3; INS promoter inh: -9; INS promoter inh cell count: 219; HSV replic up primary fold: 1

How did COc1ccc(C)cc1-n1c(SCC(=O)Nc2cc(C)on2)nc2sc(C)c(C)c2c1=O do in these assays?
GALR2 ag: -2.5; RGS16-Gao: 105; HSV replic up: inconclusive; PKD1 kinase inh: 3

Grouped by structure: the compounds so far with a Cl atom.
What do the screens show for `O=C1CCNc2c(Cl)cccc21`?
RGS16-Gao: 100; HSV replic up: inactive; HSV replic up primary fold: 1.1

What do the screens show for `O=C(CN1CCC(C(O)(c2ccccc2)c2ccccc2)CC1)Nc1cc(Cl)ccc1Cl`?
GALR2 ag: -0.1; RGS16-Gao: 105; HSV replic up: inactive; PKD1 kinase inh: 21; HSV replic up primary fold: 0.88

Following part.
What do the screens show for `Cc1ccc(C)c(CSc2nc3ccncc3n2CC(=O)Nc2ccc(C)c(C)c2)c1`?
GALR2 ag: -0.8; RGS16-Gao: 93; HSV replic up: inactive; PKD1 kinase inh: -7; INS promoter inh: -40; INS promoter inh cell count: 135; HSV replic up primary fold: 0.97

What do the screens show for `O=C(O)Cc1ccc(NC(=O)c2ccc(Cl)c(Cl)c2)cc1`?
RGS16-Gao: 97; HSV replic up: inactive; PKD1 kinase inh: -9; HSV replic up primary fold: 0.86

What do the screens show for `CC(/C=N/N1CCN(c2ccccn2)CC1)=C\c1ccccc1`?
GALR2 ag: -1.9; RGS16-Gao: 104; HSV replic up: inactive; PKD1 kinase inh: 3; HSV replic up primary fold: 0.99

What do the screens show for `N#Cc1ccc(OCC(=O)N/N=C/C2CC=CCC2)cc1` (centres undefined)?
RGS16-Gao: 98; HSV replic up: inactive; PKD1 kinase inh: -5; HSV replic up primary fold: 1.1

Results for COC(=O)CSc1cc([N+](=O)[O-])cc2c1c(C1OCCO1)nn2-c1ccccc1 ?
GALR2 ag: -0.6; RGS16-Gao: 105; HSV replic up: inactive; PKD1 kinase inh: -1; INS promoter inh: 3; INS promoter inh cell count: 136; HSV replic up primary fold: 1

How did COc1ccc(N2CCN(c3oc(COc4ccccc4)nc3C#N)CC2)cc1 do in these assays?
GALR2 ag: -0.5; RGS16-Gao: 104; HSV replic up: inactive; PKD1 kinase inh: -12; HSV replic up primary fold: 1

What do the screens show for `Nc1nsc2ccccc12`?
GALR2 ag: -2.1; RGS16-Gao: 97; HSV replic up: inactive; PKD1 kinase inh: 11; INS promoter inh: 0; INS promoter inh cell count: 82; HSV replic up primary fold: 0.7

What do the screens show for `Cc1ccc(C(=O)N[C@H](C(=O)OCC(=O)c2ccc[nH]2)C(C)C)cc1`?
GALR2 ag: -2.4; RGS16-Gao: 117; HSV replic up: inactive; PKD1 kinase inh: 3; INS promoter inh: -13; INS promoter inh cell count: 124; HSV replic up primary fold: 0.92

What do the screens show for `COc1ccccc1Nc1nc(NCC2CCCO2)c2ccccc2n1` (centres undefined)?
RGS16-Gao: 105; HSV replic up: inactive; PKD1 kinase inh: -2; INS promoter inh: -38; INS promoter inh cell count: 105; HSV replic up primary fold: 0.81

Results for O=C(O)c1ccccc1-c1ccccc1C(=O)Nc1cccc(O)c1 ?
RGS16-Gao: 101; HSV replic up: inactive; PKD1 kinase inh: -2; HSV replic up primary fold: 0.95

What do the screens show for `CCCCCN(C(=O)CN(C)Cc1ccc(OC)cc1OC)c1c(N)n(CCCC)c(=O)[nH]c1=O`?
GALR2 ag: 0.2; RGS16-Gao: 107; HSV replic up: inactive; PKD1 kinase inh: -5; INS promoter inh: -22; INS promoter inh cell count: 76; HSV replic up primary fold: 0.85

Results for COc1ccc2c(=O)c(-c3nc(C)cs3)coc2c1 ?
GALR2 ag: 0.3; RGS16-Gao: 100; HSV replic up: inactive; PKD1 kinase inh: -1; INS promoter inh: 40; INS promoter inh cell count: 124; HSV replic up primary fold: 0.84

Results for O=C(N/N=C\c1ccc(F)cc1)c1csnn1 ?
GALR2 ag: -1.5; RGS16-Gao: 108; HSV replic up: inactive; PKD1 kinase inh: 4; HSV replic up primary fold: 0.93

How did Cc1nn(C)c(Cl)c1S(=O)(=O)N1CCC(CO)(CCc2ccccc2)CC1 do in these assays?
RGS16-Gao: 115; HSV replic up: inactive; PKD1 kinase inh: 2; HSV replic up primary fold: 1.1

How did CSc1nc(C)cc(-n2cc(F)c(=O)[nH]c2=O)n1 do in these assays?
GALR2 ag: -0.1; RGS16-Gao: 104; HSV replic up: inactive; PKD1 kinase inh: -7; INS promoter inh: -58; INS promoter inh cell count: 72; HSV replic up primary fold: 0.99

How did O=c1c2c3c(sc2n2c(=S)[nH]nc2n1-c1ccccc1)CCC3 do in these assays?
RGS16-Gao: 105; HSV replic up: inactive; HSV replic up primary fold: 0.9

What do the screens show for `COc1ccc(Nc2nc(NN)nc(C)c2[N+](=O)[O-])cc1`?
RGS16-Gao: 107; HSV replic up: inactive; PKD1 kinase inh: 0; HSV replic up primary fold: 0.86

How did O=C1NC[C@@H](Cc2cccc3ccccc23)N(CCc2cc(C(F)(F)F)cc(C(F)(F)F)c2)C1=O do in these assays?
RGS16-Gao: 104; HSV replic up: inactive; HSV replic up primary fold: 0.83

Assay outcomes as filed in PubChem BioAssay.
